Assay outcomes (PubChem)
Mtb MbtI inh = MbtI salicylate synthase inhibitors, primary screen, biochemical, fluorescence intensity; AID 493033, 2011; inhibition, %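 (about 17 µg/mL by stock and volumes)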; 0.89% of 100,000 active; purified MbtI enzyme, fluorescence intensity read-out;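 active = above 50% in both replicates, above 80% if mildly self-fluorescent; inactive = the rest, strongly fluorescent compounds included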;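 also: 0% = mean of negative and 100% = mean of positive controls; one replicate is shown; some compounds called inactive have numbers as strong as hits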
PV pol inh = poliovirus RdRp elongation inhibitors, primary screen, biochemical, fluorescence polarization, total intensity; Genome polyprotein (Poliovirus type 1 (strain Mahoney)), P03300; AID 588519, 2011; poliovirus polymerase elongation; stronger effect = lower value; % elongation, % (compound at 16.7 µg/mL); 0.66% of 150,000 active; in the data active = % elongation below about 90%; also: some results filed as inactive read as strong as hits
Target sequence (P03300 1749-2209 limits assumed): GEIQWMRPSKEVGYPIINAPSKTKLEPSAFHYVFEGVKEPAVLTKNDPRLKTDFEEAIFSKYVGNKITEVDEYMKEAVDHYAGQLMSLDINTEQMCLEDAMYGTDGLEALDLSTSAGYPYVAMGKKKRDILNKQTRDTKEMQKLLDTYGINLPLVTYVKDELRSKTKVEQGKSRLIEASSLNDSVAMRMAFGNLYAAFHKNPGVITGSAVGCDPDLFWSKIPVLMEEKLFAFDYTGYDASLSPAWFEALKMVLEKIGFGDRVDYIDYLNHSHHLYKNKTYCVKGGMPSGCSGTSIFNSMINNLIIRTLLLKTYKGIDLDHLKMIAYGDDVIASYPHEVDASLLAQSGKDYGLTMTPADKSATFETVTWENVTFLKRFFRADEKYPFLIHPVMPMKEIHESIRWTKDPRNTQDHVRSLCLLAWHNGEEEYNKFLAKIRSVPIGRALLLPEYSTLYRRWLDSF
MenB inh = M. tuberculosis MenB inhibitors, primary screen, biochemical, absorbance | MenB enzyme assay, absorbance read-out; some hits fall short of the stated cut | inhibition, %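 (about 12 µg/mL by stock and volumes)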 | 1,4-dihydroxy-2-naphthoyl-CoA synthase (Mycobacterium tuberculosis (strain ATCC 25618 / … | 0.43% of 100,000 active | AID 540299, 2011;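 active = mean of two replicates above 30%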;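 also: 0% = no compound and 100% = wells with inactive enzyme; the first replicate is given; strong numbers were not always called active; inactives centre near -10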
Target sequence (P9WNP5 whole entry, looked up): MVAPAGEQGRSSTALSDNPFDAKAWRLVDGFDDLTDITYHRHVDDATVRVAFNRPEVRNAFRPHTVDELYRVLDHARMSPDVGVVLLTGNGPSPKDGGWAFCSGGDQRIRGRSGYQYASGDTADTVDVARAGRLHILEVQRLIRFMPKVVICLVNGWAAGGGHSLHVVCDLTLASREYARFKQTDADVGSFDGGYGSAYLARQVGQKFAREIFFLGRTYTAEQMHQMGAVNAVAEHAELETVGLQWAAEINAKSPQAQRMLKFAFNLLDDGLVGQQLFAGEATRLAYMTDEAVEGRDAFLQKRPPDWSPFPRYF
PV pol inh intensity = recorded beside PV pol inh, whose call it bears; % elongation; measured here: total intensity read-out; formula for this scale not given here;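 total fluorescence in place of polarization; lower means less elongation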
* hit, by the source's call; . = no result given.

#1 O=C(CSc1cn(CC(=O)N2CCCC2)c2ccccc12)Nc1ccccc1
#2 CC1CCCCC1NS(=O)(=O)c1ccc(S(=O)(=O)N2CCN(CCC#N)CC2)cc1 (stereo unspecified)
#3 O=c1[nH]c(=S)[nH]c(O)c1C=Nc1cc(C(F)(F)F)cc(C(F)(F)F)c1
#4 Cc1ccc(C(O)c2ccccc2)s1 (stereo unspecified)
#5 CC(CCN1CCN(C)CC1)c1ccccc1 (stereo unspecified)
#6 C/C(=N\NC(=O)c1ccc(Br)o1)c1ccc(N)cc1
#7 CCn1c2ccccc2c2cc(C=Nc3ccc(OC)cc3)ccc21
#8 CN(C)Cc1ccc(CNCc2ccccc2OC(F)F)cc1
#9 CC(OC(=O)C1(c2cccc(F)c2)CCCC1)C(N)=O (stereo unspecified)
#10 Cc1cccc(N(C)C(=O)CCS(=O)(=O)c2ccc3c(c2)SC(C)C(=O)N3)c1 (stereo unspecified)
assay / compound,1,2,3,4,5,6,7,8,9,10
Mtb MbtI inh,5,0,-5,-2,-12,12,.,-9,-5,0
PV pol inh,102,100,107,103,100,100,103,100,96,102
PV pol inh intensity,103,101,102,105,102,102,112,104,107,96
MenB inh,-13,-27,-17,-4,-6,-13,-21,5,-21,1

#11 O=C(N/N=C/c1ccccc1)C1COc2ccccc2O1 (stereo unspecified)
#12 O=C(COC(=O)C1CC(=O)N(CCc2ccc(Cl)cc2)C1)c1ccc(Cl)cc1 (stereo unspecified)
#13 CCC(=O)Nc1sc2c(c1C#N)CCCC2
#14 N#C/C(=C(/O)CN1CCCC1)c1nc(-c2ccccc2)cs1
#15 Cc1occc1-c1n[nH]c(=O)o1
#16 COC(=O)c1ccsc1N1C(=O)c2ccccc2C1=O
#17 CC(C)N(C(=O)Cn1cc(SCC(=O)N2CCOCC2)c2ccccc21)C(C)C
#18 CC1=C(C)OC(C)(C(=O)/C=C/c2ccccc2)CC1 (stereo unspecified)
#19 N#CCc1nc(-c2cc3cc(Br)ccc3oc2=O)cs1
#20 CCc1ccccc1N1C(=N)SC2CS(=O)(=O)CC21 (stereo unspecified)
assay / compound,11,12,13,14,15,16,17,18,19,20
Mtb MbtI inh,2,.,1,18,-1,-8,-8,5,10,2
PV pol inh,97,104,103,116,102,105,100,101,103,99
PV pol inh intensity,105,111,99,125,105,107,102,102,110,103
MenB inh,-52,-1,-9,-13,1,-17,-3,-44,-21,1

#21 COc1cc(Cc2ccc(N)c(OC)c2)ccc1N
#22 O=C(CN1C(=O)S/C(=C\c2cccs2)C1=O)Nc1ccc(-c2nnc3n2CCCCC3)cc1
#23 CCCCNC(=O)Cn1cc(C(F)(F)F)ccc1=O
#24 N/C(=N\OC(=O)Cc1cccs1)c1ccccc1
#25 O=C(OCC1OC2C(Oc3nc(=O)ccn32)C1O)c1ccccc1 (stereo unspecified)
#26 Cc1cc(SCC(=O)Nc2ccccc2)c2ccccc2n1
#27 CCOc1ccc(NC(=O)C2CC2)cc1
#28 Oc1ccc(/C=N/NC(=S)Nc2cccnc2)cc1
#29 N#CSc1ccc(N2CCOCC2)cc1
#30 CCOC(=O)C1CCCN(c2nc3c(S(=O)(=O)c4ccccc4)nnn3c3ccccc23)C1 (stereo unspecified)
assay / compound,21,22,23,24,25,26,27,28,29,30
Mtb MbtI inh,-9,22,-7,-8,.,.,6,11,14,194
PV pol inh,100,103,104,99,94,89*,99,102,104,100
PV pol inh intensity,99,111,110,106,88,90*,103,105,105,101
MenB inh,-7,2,-8,3,-8,-31,-33,-33,.,-2

Brought forward from above: 2 compounds; new compounds follow.
#29 N#CSc1ccc(N2CCOCC2)cc1
#30 CCOC(=O)C1CCCN(c2nc3c(S(=O)(=O)c4ccccc4)nnn3c3ccccc23)C1 (stereo unspecified)
#31 OC1CCCN(CC(O)COc2ccc3ccccc3c2)C1 (stereo unspecified)
#32 Cc1cc(-c2nn(C)c(=O)c3ccccc23)cc(C)c1O
#33 CN1CCN(C(=O)CNC(=O)C23CC4CC(CC(C4)C2)C3)CC1
#34 O=C(/C=C/c1ccccc1Cl)N1CCCCC1
#35 CC(C)(C)OC(=O)N1CCC(C(=O)OCc2ccc(C#N)cc2)CC1
#36 COc1ccc(-c2cc(C(F)(F)F)nc(SCCC(=O)Nc3ccccc3)n2)cc1
#37 Cc1cc(C)c2nc(NCCNC(=O)C3CCCCC3)c(C#N)cc2c1
#38 CCNC(=S)Nc1ccccc1
#39 CCCn1c(SC(C)C(=O)c2ccc(NS(C)(=O)=O)cc2)n[nH]c1=O (stereo unspecified)
#40 COc1cc(C2CSc3nc4sc5c(c4c(=O)n32)CCCC5)cc(Cl)c1O (stereo unspecified)
assay / compound,29,30,31,32,33,34,35,36,37,38,39,40
Mtb MbtI inh,14,194,2,-15,-14,4,0,20,17,-8,9,.
PV pol inh,104,100,92,109,99,102,102,102,99,101,105,111
PV pol inh intensity,105,101,94,111,102,100,107,105,103,102,112,119
MenB inh,.,-2,10,-19,-2,-10,12,-17,24,-57,0,-1

The final three compounds of the section before lead into the next:
#38 CCNC(=S)Nc1ccccc1
#39 CCCn1c(SC(C)C(=O)c2ccc(NS(C)(=O)=O)cc2)n[nH]c1=O (stereo unspecified)
#40 COc1cc(C2CSc3nc4sc5c(c4c(=O)n32)CCCC5)cc(Cl)c1O (stereo unspecified)
#41 O=C(O)c1cn(Cc2ccccc2Cl)c2ccc(S(=O)(=O)N3CCOCC3)cc2c1=O
#42 CCN(C(=O)c1cn(C)c(=O)c2cc(OC)c(OC)cc12)c1ccc(F)cc1
#43 Cc1c(Cl)cccc1NC1=NS(=O)(=O)c2ccccc21
#44 [N-]=C=N[n+]1ccc2ccccc2c1C(=O)c1ccc(Cl)cc1
#45 CN=C(Nc1cc(C(F)(F)F)ccc1-n1ccnc1)c1ccccc1
#46 Cc1cc(N2CCN(C)CC2)nc2ccc(NC(=S)NC3CC3)cc12
#47 CC(=O)OC1C(=O)OC2[C@@H](C)C(n3ccc(=O)[nH]c3=O)O[C@H]12 (stereo partly specified)
#48 Cn1c(=O)c(C(=O)/C=C/C=C/c2ccccc2)c(O)c2ccccc21
#49 c1ccc(N=c2scc(-c3ccccc3)n2CCN2CCOCC2)cc1
#50 Cc1nc2ccccc2c(C(=O)OCC(=O)Nc2ccc(Cl)cc2F)c1C
assay / compound,38,39,40,41,42,43,44,45,46,47,48,49,50
Mtb MbtI inh,-8,9,.,-3,1,.,3,-11,-19,-9,.,14,-14
PV pol inh,101,105,111,101,101,108,72,104,102,104,109,100,103
PV pol inh intensity,102,112,119,100,101,108,137,108,106,107,147,97,110
MenB inh,-57,0,-1,11,5,-7,-4,.,-10,-2,-14,5,.

Ordered by molar mass (ascending): 6 of the compounds above
#18 CC1=C(C)OC(C)(C(=O)/C=C/c2ccccc2)CC1 (stereo unspecified)
#43 Cc1c(Cl)cccc1NC1=NS(=O)(=O)c2ccccc21
#47 CC(=O)OC1C(=O)OC2[C@@H](C)C(n3ccc(=O)[nH]c3=O)O[C@H]12 (stereo partly specified)
#1 O=C(CSc1cn(CC(=O)N2CCCC2)c2ccccc12)Nc1ccccc1
#12 O=C(COC(=O)C1CC(=O)N(CCc2ccc(Cl)cc2)C1)c1ccc(Cl)cc1 (stereo unspecified)
#2 CC1CCCCC1NS(=O)(=O)c1ccc(S(=O)(=O)N2CCN(CCC#N)CC2)cc1 (stereo unspecified)
assay / compound,18,43,47,1,12,2
Mtb MbtI inh,5,.,-9,5,.,0
PV pol inh,101,108,104,102,104,100
PV pol inh intensity,102,108,107,103,111,101
MenB inh,-44,-7,-2,-13,-1,-27

(listing goes on)
#51 COc1ccc(Br)cc1CNC(=O)CCn1c(=O)c2cccn2c2cccnc21
#52 CCN1C(=O)C2(Cc3ccccc3N3CCCC32)C(=O)N(CC)C1=S (stereo unspecified)
#53 O=C(NC1CCCCC1NC(=O)c1ccco1)c1ccco1 (stereo unspecified)
#54 CCOc1ncccc1C(=O)NCC12CC3CC(CC(C3)C1)C2
#55 Cn1c(N)c(C(=O)c2ccc(Cl)c(S(=O)(=O)N3CCCC3)c2)c(=O)[nH]c1=O
#56 c1ccc(OCc2nc(-c3ccccn3)n[nH]2)cc1
#57 COc1ccc(/C=N/c2nc3ccc(Br)cc3s2)cc1
#58 COc1ccc2cc(C(C)c3nc4ccccc4[nH]3)ccc2c1 (stereo unspecified)
#59 CC(=O)N1N=C(Cn2cnc3c(=O)n(C)c(=O)n(C)c32)OC1c1ccc2c(c1)OCO2 (stereo unspecified)
#60 N#Cc1ccc(/C=N/NC(=O)Cc2cn3ccsc3n2)cc1
assay / compound,51,52,53,54,55,56,57,58,59,60
Mtb MbtI inh,-1,-4,-4,-30,2,4,.,0,-14,8
PV pol inh,101,103,101,100,103,115,105,105,102,100
PV pol inh intensity,100,93,102,88,110,118,113,101,102,104
MenB inh,-14,-29,11,-34,-6,-46,-20,-29,1,5

#61 N#Cc1ccccc1CN1c2cccc3cccc(c23)S1(=O)=O
#62 CN(C)C(=O)c1ccc(-c2cc(C(F)(F)F)n(C)n2)s1
#63 O=C(NC1CCCC1)C(c1ccncc1)N(CCCN1CCOCC1)C(=O)c1ccc(-c2ccccc2)[nH]1 (stereo unspecified)
#64 O=C(Nc1ccccc1Cl)c1cnsn1
#65 Cc1cc(C(=O)OCC(=O)N2CCC(C)CC2)c2ccccc2n1
#66 O=C1NC(=S)S/C1=C/c1ccc(-c2ccc3c(c2)C(=O)NC3=O)o1
#67 CC1CN(c2ccc(NS(=O)(=O)c3ccccc3)cc2C(=O)O)CC(C)O1 (stereo unspecified)
#68 O=C(O)/C=C/C(=O)N1CC=C(c2ccccc2)CC1
#69 Cc1ccc(S(=O)(=O)NC(=O)NC2CC(C)(C)NC(C)(C)C2)cc1
#70 O=C(O)CCc1nn2c(nc3ccccc32)[nH]c1=O
assay / compound,61,62,63,64,65,66,67,68,69,70
Mtb MbtI inh,-2,12,-15,-2,4,.,-9,16,-7,.
PV pol inh,103,102,101,104,102,111,99,103,105,102
PV pol inh intensity,100,104,103,105,97,103,97,99,106,105
MenB inh,-10,-16,3,-36,.,-36,0,1,-17,-2

#71 Clc1nccc2nc(N3CCCCCC3)ncc12
#72 Cc1cc(NC(=O)CSC2=Nc3ccccc3CS2)no1
#73 Cc1ccc(-n2nnc3c(SCC(=O)Nc4cc(C)on4)ncnc32)cc1
#74 O=C(CNC(=S)N(Cc1ccccc1)Cc1ccccc1F)N1CCCC1
#75 CC1(C)CCCC(C)(C)N1Sc1ccccc1
#76 CCOc1cc(C(=O)NC2CCCCC2C)cc(OCC)c1OCC (stereo unspecified)
#77 CCOC(=O)c1cccc(NC(=O)CCOc2ccccc2)c1
#78 Cc1cc(O)c(NC(=O)c2ccccc2Cl)cc1C
#79 CCOC(=O)c1c(C)c(C)c(C)[nH]c1=S
#80 CC(C)N(C(=O)CSc1nccc(=O)[nH]1)c1ccccc1
assay / compound,71,72,73,74,75,76,77,78,79,80
Mtb MbtI inh,-1,0,2,-4,32,1,-7,11,91*,7
PV pol inh,101,102,99,101,101,99,101,101,101,97
PV pol inh intensity,100,95,101,107,103,100,107,100,105,100
MenB inh,-3,-3,7,-23,.,-10,-4,-19,-4,-7

#81 COc1ccccc1NC(=O)C1=C(C)Nc2sc(C#N)c(N)c2C1c1ccco1 (stereo unspecified)
#82 COc1ccc(S(=O)(=O)n2c(SCc3ccc(C(F)(F)F)cc3)nc3ccccc32)cc1
#83 COc1cccc(C(=O)OCC(=O)NC23CC4CC(CC(C4)C2)C3)c1
#84 O=C(/C=C/c1ccco1)N(Cc1ccccc1F)C1CCS(=O)(=O)C1 (stereo unspecified)
#85 COc1cccc(N2CC(=O)N(/N=C/c3ccccn3)CC2=O)c1
#86 O=c1c2cnn(-c3ccccc3)c2nc(-c2cccs2)n1-c1ccc(Br)cc1
#87 N#Cc1cccc(NC(=O)/C=C/c2ccco2)c1
#88 CC(NC(=O)/C=C/c1ccccc1Cl)c1ccccc1 (stereo unspecified)
#89 CCCN(Cc1cccs1)C(=O)Nc1cc(OC)cc(OC)c1
#90 N#C/C(=C\c1c(Oc2ccccc2)nc2ccccn2c1=O)C(=O)NC1CCS(=O)(=O)C1 (stereo unspecified)
#91 CC(C)(CO)NC(=O)C1CC(c2c(F)cccc2Cl)=NO1 (stereo unspecified)
assay / compound,81,82,83,84,85,86,87,88,89,90,91
Mtb MbtI inh,-189,3,-6,20,10,15,22,3,-6,40,5
PV pol inh,101,99,103,102,101,100,107,101,104,99,100
PV pol inh intensity,128,102,104,103,100,104,109,105,96,102,103
MenB inh,-12,-20,.,3,1,-11,2,-8,-22,-122,9
